Compound activity as filed in PubChem BioAssay.
VDR inh – Inhibitors of the vitamin D receptor (VDR): qHTS; AID 504847, 2011; Potency, µM, for the others: max response, negative = inhibition, most hits filed as inhibitors; hit rate 0.93% among 400,000; VDR-SRC2-3 peptide fluorescence polarization, 2 h; Vitamin D3 receptor (Homo sapiens), P11473; active = well fitted inhibition curve with a large enough effect; inconclusive = small, poorly fitted or top-dose-only effect, or another doubt; inactive = no such curve, though single readings can be large or run the other way; also: series mostly up to about 120 µM
Target sequence (P11473 whole entry, looked up): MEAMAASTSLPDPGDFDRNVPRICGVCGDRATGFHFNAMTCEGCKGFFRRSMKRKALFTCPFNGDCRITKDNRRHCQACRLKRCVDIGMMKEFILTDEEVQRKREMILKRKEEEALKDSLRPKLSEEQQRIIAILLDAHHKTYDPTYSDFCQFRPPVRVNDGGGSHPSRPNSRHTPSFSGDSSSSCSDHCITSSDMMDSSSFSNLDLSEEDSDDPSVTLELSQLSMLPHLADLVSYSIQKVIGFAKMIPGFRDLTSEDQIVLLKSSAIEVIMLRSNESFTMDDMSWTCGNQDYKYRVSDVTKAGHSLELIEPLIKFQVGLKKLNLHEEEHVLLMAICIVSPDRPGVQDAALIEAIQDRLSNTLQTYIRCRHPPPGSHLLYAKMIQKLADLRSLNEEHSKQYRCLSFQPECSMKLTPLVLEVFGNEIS
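Fluorescence polarization assay measuring small-molecule disruption of VDR binding to the coregulator peptide SRC2-3. Compounds were pin-transferred (23 nl) into the reagent mix and incubated 2 h at room temperature before reading.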
The depositor's hits bear a star; ? = inconclusive; [ ] = remark or other dose. % is scaled to controls: 0 for no effect and ±100 for the full control effect; potency is read from the fitted curve at half-maximal effect. These rows are one share of the data; the hit share may differ from the screen's.

SMILES	VDR inh
CC(=O)Nc1cccc(C(=O)OCC(=O)NNC(=O)c2ccc([N+](=O)[O-])cc2)c1	11%
O=C(OCc1nnc(-c2ccc(Br)cc2)o1)c1ccco1	3%
COc1ccc(C(C[N+](=O)[O-])c2c(C)cc3ccccn23)c(OC)c1 (stereo unspecified)	-26%
CC1=C(C(=O)Nc2ccccc2)C(c2ccc[nH]2)n2ncnc2N1 (stereo unspecified)	4%
O=C(COC(=O)c1ccc([N+](=O)[O-])o1)NCCCc1ccccc1	3%
COc1ccc(NC(=O)c2oc3ccccc3c2NC(=O)C2CC2)cc1	-12%
CCCN(CC(=O)Nc1ccc(F)c(F)c1F)C(=O)C1CC(=O)N(Cc2ccccc2)C1 (stereo unspecified)	5%
COc1ccc(-c2nc3ccc(C)cn3c2NCc2ccc3c(c2)OCO3)cc1	4%
O=S(=O)(c1ccc(Oc2ccc(Cl)cc2)c(S(=O)(=O)N2CCCCC2)c1)N1CCCCC1	14%
CCOc1cc(CNCC2CCCN2CC)cc(Cl)c1OC (stereo unspecified)	-11%

Filtered by structure, the entries above containing a Cl atom
SMILES	VDR inh
O=S(=O)(c1ccc(Oc2ccc(Cl)cc2)c(S(=O)(=O)N2CCCCC2)c1)N1CCCCC1	14%
CCOc1cc(CNCC2CCCN2CC)cc(Cl)c1OC (stereo unspecified)	-11%

(further entries)
SMILES	VDR inh
COc1ccc(C(C)NC(=O)Nc2ccc(C(C)=O)cc2)cc1OC (stereo unspecified)	-9%
Cc1c(C(=O)c2ccc(Cl)c(Cl)c2)cnc2cc3c(cc12)OCO3	-1%
C[N+](C)(C)CCOP(=O)([O-])OC[C@H](O)CO	-12%
Cc1ccc(N2C(=O)CC(Cc3ccc(Cl)cc3)C2=O)cc1 (stereo unspecified)	8%
Cc1cccnc1NC(=O)Nc1ccc(F)cc1	3%
CCOC(=O)C1CCN(C(=O)CN2C(=O)c3cccnc3Oc3ccc(C)cc32)CC1	1%
CCCC(=O)Nc1sc(C(=O)Nc2cccc(N)c2)c(C)c1C(=O)OC	-13%
CCN(CC(=O)NCc1cccs1)C(=O)c1cccc(S(=O)(=O)Nc2ccc(C)cc2)c1	2%
Cc1ccc(-n2c(=O)c3c4c(sc3n(CC(=O)c3ccc(Cl)cc3)c2=O)CCC4)cc1C	3%
CC1(O)CC(c2ccc(Cl)cc2)=NN1C(=O)c1ccc(Cl)cc1 (stereo unspecified)	-15%
COC(=O)C(CC(=O)CNC(=O)c1ccccc1)NC(=O)c1ccccc1 (stereo unspecified)	5%
COc1ccc(Cl)cc1NC(=O)N1CCN(S(C)(=O)=O)CC1	6%
CCOc1ccc(OCCOCCn2ccnc2)cc1	-14%
COc1cccc(NC(=O)C(Cc2ccccc2)n2cccc2)c1 (stereo unspecified)	4%
O=C(NCCc1c[nH]c2ccccc12)C1CCC(=O)N(CCc2cccc(F)c2)C1 (stereo unspecified)	-2%
CC1(C)C2CCC1(C)C(NC(=O)CCN1CCCCC1)C2 (stereo unspecified)	4%
Cc1ccc(NC(=O)c2ncn(CC(=O)N[C@H](CO)Cc3c[nH]c4ccccc34)n2)cc1C	-16%
CCO[C@@H]1c2c(ccc3ccc(=O)oc23)OC(C)(C)[C@H]1O	19%
N=C1SC(c2ccccc2)C(=O)N1c1ncc(Cc2ccccc2Cl)s1 (stereo unspecified)	-30%
c1ccc2c(c1)nc1n2CC2CON(C3CCCCC3)C12 (stereo unspecified)	5%
N=c1c(S(=O)(=O)c2ccccc2)cc2c(=O)n3ccccc3nc2n1CCCN1CCOCC1	-17%
CCc1cccc(NC(=O)Cn2cc3c(n2)CCCC3)c1	-15%
CC(=O)Nc1ccc(NC(=O)CCn2c(=O)oc3ccccc32)cc1	3%
O=C1CSC(=O)N1CCOCCN1C(=O)CSC1=O	4%
O=C(Nc1ccc2c(c1)OCCO2)c1ccccc1F	-15%
COC(=O)COc1ccc(/C=C2/NC(=O)N(CC(=O)OC)C2=O)cc1	1%
Cc1ccc(CN2CC(C(=O)NNC(=O)c3ccc(F)cc3)CC2=O)cc1 (stereo unspecified)	-6%
CC(C)CN1CCC(=O)N([C@H](CN=[N+]=[N-])Cc2ccccc2)CC1	-17%
COc1ccc(-c2noc(-c3ccc(N4CCCC4)c([N+](=O)[O-])c3)n2)cc1	6%
CCOC(=O)COc1ccc(C)cc1C(=O)c1ccn2nc(-c3ccc(Cl)cc3)cc2n1	4%
O=C(Nc1cccc(Cl)c1)c1cc(-c2ccccc2)on1	5%
CCOC(=O)N/N=C1\CCc2ccccc21	-2%
Cc1nc(SC(C(N)=O)c2ccccc2)c(C#N)c(C)c1C (stereo unspecified)	-6%
N#CCC(=O)N/N=C/c1c(-c2ccccc2)n(-c2ccccc2)c2ccccc12	-1%
CC(=O)Sc1nc(-c2ccccc2)[nH]c1S(=O)(=O)c1ccc(C)cc1	?
CCOC(=O)CCc1c(C)nc(SCCN2CCCC2)c(C#N)c1C	3%
CSCCC(NC(N)=O)C(=O)N(C)CC(=O)Nc1ccc(C)cc1 (stereo unspecified)	17%
Cc1ccc(Cl)cc1-n1ncc2c(N3CCCCCC3)ncnc21	2%
CCOc1ccc(N2C(=O)CC(SCC(=O)O)C2=O)cc1 (stereo unspecified)	4%
COc1ccc2cc(-c3ccsc3)ncc2c1	-3%

Continued (7 carried over from the part before).
SMILES	VDR inh
N#CCC(=O)N/N=C/c1c(-c2ccccc2)n(-c2ccccc2)c2ccccc12	-1%
CC(=O)Sc1nc(-c2ccccc2)[nH]c1S(=O)(=O)c1ccc(C)cc1	?
CCOC(=O)CCc1c(C)nc(SCCN2CCCC2)c(C#N)c1C	3%
CSCCC(NC(N)=O)C(=O)N(C)CC(=O)Nc1ccc(C)cc1 (stereo unspecified)	17%
Cc1ccc(Cl)cc1-n1ncc2c(N3CCCCCC3)ncnc21	2%
CCOc1ccc(N2C(=O)CC(SCC(=O)O)C2=O)cc1 (stereo unspecified)	4%
COc1ccc2cc(-c3ccsc3)ncc2c1	-3%
O=C(c1ccc(NC(=O)C2(c3ccccc3)CCOCC2)cc1)N1CCOCC1	9%
Cc1cccc(C(=O)Nc2nnc(S(=O)(=O)N(C)Cc3ccc(Cl)cc3)s2)c1	-10%
CCN(CC(=O)Nc1ccc(N2CCOCC2)cc1)Cc1nc2ccccc2c(=O)[nH]1	15%
NC(=O)c1ccc(N=Cc2ccc([N+](=O)[O-])s2)cc1	-29%
Cc1ccc(S(=O)(=O)N2[C@@H](c3ccc(Br)cc3)C(C(=O)O)=CC[C@H]2c2cccc(C)c2)cc1	3%
O=C(CN1CCCC1)Nc1ccccc1Sc1ccc(Cl)cc1	0%
COc1ccc(/C=N/N=C2/C(=O)Nc3ccccc32)cc1O	-10%
O=C(Nc1nnc2n1CCS2)c1ccc(F)cc1F	15%
COc1ccc(-c2nnc(SCC(=O)Nc3cccc(F)c3)s2)cc1	2%
O=C(O)CCCC/C=C(\c1ccccc1)c1cccnc1	2%
Cc1cc(Br)cc(Cl)c1OC(=O)c1cnccn1	16%
CCOC(=O)c1cnc2ccc(OCC)cc2c1N1CCN(c2ccccc2)CC1	-9%
CCN(CC)C(=O)c1ccccc1NS(C)(=O)=O	-4%
COc1ccc(C2CC(=O)C(C=NCCN3CCOCC3)=C(O)C2)cc1 (stereo unspecified)	6%
O=C(N[C@@H](Cc1ccccc1)C(=O)N1CCN(S(=O)(=O)c2cccc(F)c2)CC1)c1ccco1	-7%
Cc1ccc(C(=O)N2CCN(C(=O)C3CCCO3)CC2)cc1 (stereo unspecified)	-5%
CCC(CC)C(=O)c1c[nH]c(C(=O)NCc2cccs2)c1	-24%
O=C1CCc2cc(S(=O)(=O)N3CCN(c4ccccc4F)CC3)ccc2N1	-6%
O=C1c2oc3ccc(Cl)cc3c(=O)c2C(c2ccco2)N1CCN1CCOCC1 (stereo unspecified)	2%
C=CCn1c(CCCNC(=O)CCC)nc2ccccc21	-13%
COCC1CCN(C(=O)c2ccc3oc(Cc4ccc(Cl)cc4)nc3c2)C1 (stereo unspecified)	-15%
COc1cccc(CNC(=O)c2ccc3nc(CCc4ccccc4)oc3c2)c1OC	2%
COc1ccc(C(=O)Nc2ccc(Oc3ncnc4sc(-c5ccccc5)cc34)cc2)cc1OC	-4%
Cc1csc(NC(=O)CSc2nnc(-c3ccoc3C)n2Cc2ccco2)n1	-13%
Cc1cc(=O)[nH]c(-c2ccccc2O)n1	-5%
Cc1ccc(C(=O)N(CC(=O)NC2CCCC2)c2ccc(F)cc2)s1	-14%
CCN1CCN(CC(=O)N2N=CCC2c2ccccc2)CC1 (stereo unspecified)	20%
CC(C)C[C@H](NC(=O)c1[nH]cnc1C(=O)N[C@@H](Cc1ccccc1)C(=O)OCc1ccccc1)C(=O)OC(C)(C)C	-21%
CCCC(=O)Nc1c(-c2ccccc2)c(=O)c(C)nn1-c1ccccc1	-6%
COc1ccc(CCNC(=O)C2CCCN(S(=O)(=O)c3cccc4nonc34)C2)cc1OC (stereo unspecified)	15%
O=C(Nc1nccs1)C1CCCN1/C=C/C(=O)C(F)(F)F (stereo unspecified)	-8%
CCCC(c1nnnn1Cc1ccco1)N1CCN(C2CCCC2)CC1 (stereo unspecified)	2%
COc1ccc(CNC(=O)Cn2cc(C(F)(F)F)ccc2=O)cc1OC	-21%
CCSc1nnc(SCC(=O)N2CCN(C(=O)c3ccco3)CC2)s1	-2%
CCC(C(=O)OC)n1cnc2c(nnn2-c2ccc(F)cc2)c1=O (stereo unspecified)	3%
CC(C)[C@H](NC(=O)OC(C)(C)C)C(=O)N/N=C/c1cccc2nccnc12	-24%
COc1cc(CN2CCNC(=O)C2CC(=O)N(C)Cc2cccnc2)cc(OC)c1 (stereo unspecified)	-24%
CCCC/C=C/[C@@H](c1ccccc1)C1COC(=O)CC1O (stereo partly specified)	-9%
O=C(c1nc2ccc(Cl)cn2c1CN1CCCC1)N1CCc2ccccc2C1	-6%
COc1ccccc1-c1cn[nH]c1-c1ccc(OCc2ccccc2F)cc1O	32%[activator]

Among those listed so far, 2 have a CF3 group:
SMILES	VDR inh
O=C(Nc1nccs1)C1CCCN1/C=C/C(=O)C(F)(F)F (stereo unspecified)	-8%
COc1ccc(CNC(=O)Cn2cc(C(F)(F)F)ccc2=O)cc1OC	-21%

New compounds follow:
SMILES	VDR inh
C=CCN1C(=O)/C(=C\c2ccc(Cl)cc2)N=C1SCC(=O)NCCC	5%
CCOC(=O)C1CCN(c2nc3ccccc3nc2C(C#N)C(=O)OC(C)COC)CC1 (stereo unspecified)	10%
Cc1ccnc(NC(=O)c2ccc([N+](=O)[O-])s2)c1	-5%
Cc1ccc(S(=O)(=O)N2CCOCC2)cc1NC(=O)Cn1ccsc1=N	14%
CC(=O)CC[C@@H](C)O[C@@H]1OC(C)[C@H](O)CC1O (stereo partly specified)	-7%
Cc1ccc2c(c1)[nH]c1c(=O)n(CCCN3CCOCC3)cnc12	-17%
CC(C)CNC(=O)c1ccccc1NC(=O)CN(c1ccccc1)S(=O)(=O)N(C)C	1%
COc1ccc(-c2cnn(C3CCS(=O)(=O)C3)c2N)cc1 (stereo unspecified)	-5%
COc1ccc(Cn2c(CNC(=O)Cc3ccc(OC)c(OC)c3)nc3cccnc32)cc1	15%
COc1ccc(/C=N/NC(=O)c2ccc(CSc3nc(C)cc(C)n3)cc2)c(OC)c1OC	3%

Individual results from the entries so far:
COc1ccc(-c2nc3ccc(C)cn3c2NCc2ccc3c(c2)OCO3)cc1 in VDR inh = 4%
COc1ccc(C(=O)Nc2ccc(Oc3ncnc4sc(-c5ccccc5)cc34)cc2)cc1OC in VDR inh = -4%
CC(=O)Nc1ccc(NC(=O)CCn2c(=O)oc3ccccc32)cc1 in VDR inh = 3%
Cc1ccc(NC(=O)c2ncn(CC(=O)N[C@H](CO)Cc3c[nH]c4ccccc34)n2)cc1C in VDR inh = -16%

Next entries follow:
SMILES	VDR inh
COc1ccc(-c2c(C)nn3c(-c4ccccc4)cc(-c4ccccc4)nc23)cc1	-1%
CN(C)c1ccc(CNn2cnnc2)cc1	8%
CCN(CC)CCNC(=O)c1ccc(CS(=O)(=O)c2ccc(Br)cc2)o1	-11%
Cc1nnc(SCC(N)=O)n1CCc1ccccc1	-8%
COc1ccc(CCN=Cc2ccc(O)cc2)cc1OC	4%
O=C(Cn1nc(C(=O)O)c2ccccc2c1=O)c1c[nH]c2ccccc12	25%
O=C(NCCCCO)C(F)(F)C(F)(F)C(F)(F)C(=O)NCCCCO	-28%
CCN(C1CCS(=O)(=O)C1)S(=O)(=O)c1cccc([N+](=O)[O-])c1 (stereo unspecified)	-5%
Cc1ccc([N+](=O)[O-])c(OCCN2CCC(Cc3ccccc3)CC2)c1	-14%
COc1ccc(-c2cc(C)no2)cc1S(=O)(=O)Nc1ccc(NC(C)=O)cc1	-15%
COc1ccc(S(=O)(=O)N(CCC(=O)O)Cc2ccccc2)cc1	-10%
Cc1nn(Cc2ccccc2)c(Cl)c1/C=N/NC(=O)CNc1cccc(C(F)(F)F)c1	-10%
CCCC(=O)NC(c1ccc(OCC)cc1)c1ccc(OC)c(OC)c1 (stereo unspecified)	-10%
CCN(CC)S(=O)(=O)c1cccc(C(=O)N2CCCc3ccccc32)c1	0%
COCCN(C(=O)CCC(=O)Nc1ccccn1)C(C(=O)NC1CCCC1)c1ccc(OC)cc1 (stereo unspecified)	11%
CC(NC(=O)c1ccco1)C(=O)N1CCN(C(c2ccccc2)c2ccccc2)CC1 (stereo unspecified)	-12%
Cc1ccc(OC(=O)Nc2ccccc2)cc1	-9%
CC1(C)C(CC(=O)O)CC1C(=O)O (stereo unspecified)	-13%
COc1ccc(CNS(=O)(=O)c2ccc(F)cc2Br)cc1	25%
Cc1c(N=Cc2ccncc2)c(=O)n(-c2ccccc2)n1C	9%
N/C(=N\OC(=O)c1cc(Br)ccc1Cl)c1cccnc1	7%
COc1ccccc1S(=O)(=O)Nc1cccc(-c2nnc3n2CCCCC3)c1	-1%
Cc1ccccc1-c1nc2scc(CCNC(=O)c3ccco3)n2n1	19%
COc1ccc(CSC2=NCCN2)cc1Br	-11%
Cc1cnc(C(=O)OCC(=O)c2ccc(Br)s2)cn1	12%
